eIF4H FP inh = inhibitors of RNA binding by human eIF4H | Q15056 | eIF4H fluorescence polarization binding assay | inhibition, % at 35 µM | hit rate 0.94% among 290,000 | AID 2012;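 active = 50% or more with normal probe brightness, or confirmed in later tests; inconclusive = above 50% with abnormal brightness, or retests that disagree; inactive = below 50% or failed in later tests; about a fifth of its hits are not listed in these tables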;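 note: calls also rest on retests at 20 µM and on dose response follow-up; 0% = protein and probe with vehicle and 100% = probe without protein; strong numbers were not always called active; many hits fall short of the cut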
MT1-MMP act inh = inhibitors of human MT1-MMP activation; P50281; HT1080 RFP-PRO-GFP cells, GFP/RFP ratio fluorescence, overnight; percent of plate control window, DMSO zero; GFP/RFP ratio change, % at 20 µM; hit rate 0.061% among 360,000; AID 651647;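 active = GFP/RFP ratio change of at least 30% with cell ATP level not reduced by more than half and red fluorescence within 50% of control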; note: strong numbers were not always called active
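Material: RFP-PRO-GFP reporter HT1080 cells. Dosing: single-point 20 µM compound, 1% DMSO. Controls: DMSO and RFP-L50D-GFP cell wells. Timing: cells overnight before dosing, compound overnight, 37 °C, 5% CO2. Measure: GFP/RFP fluorescence ratio.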
CSC inhib = cancer stem cell inhibition; cancer stem cell-like cells viability, luminescence; inhibition, % at 7.5 µM; hit rate 1.1% among 300,000; AID 2717;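 active = mean at 75% or more and at least half the replicates too; inconclusive = mean and replicates disagree; tested in HMLE shEcad cells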;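 note: 0% = median of negative and 100% = median of positive control wells; the first replicate is given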
HIV Env fusion = HIV envelope-mediated fusion inhibition | HeLa-JRFL Env/CEM21 cell fusion, luciferase | hit rate 1.1% among 360,000 | inhibition, % at 12.3 µM;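 active = mean replicate inhibition score of at least 50 and every replicate individually at or above 50; inconclusive = only one of the two criteria met; inactive = mean below 50 and not all replicates reaching 50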;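 note: 0% = plate neutral controls and 100% = maraviroc near 300 nM; one replicate is shown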
Yeast UUG start = modulators of start codon recognition fidelity in yeast. hit rate 0.13% among 350,000. activity score, % at 18.7 µM. S. cerevisiae UUG-firefly luciferase reporter, luminescence/redox ratio;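 active = replicate mean at a twofold rise or more, about +100% in these data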;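 note: firefly luciferase made from a UUG start codon reports start codon fidelity; reporter light over untreated wells divided by growth signal over untreated wells; some hits fall short of that in this replicate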
Rce1 inh = blocks yeast Ras-converting enzyme | hit rate 0.27% among 290,000 | Q03530 | yeast membranes, quenched prenylated peptide cleavage fluorescence | calls only;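 active = fall in fluorescence gain of 50% or more versus controls, with final raw signal at or below 3038400; inconclusive = same 50% fall but final raw signal above 3038400; inactive = fall in fluorescence gain under 50%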;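 note: plate controls were neutral control wells for no effect and wells lacking membranes for full effect; tested at 10 µM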
PABP polyA inh = PABP-poly(A) binding inhibition; PABP-poly(A) RNA binding, fluorescence polarization; inhibition, % at 35 µM; hit rate 1% among 290,000; AID 2014;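 active = 50% or more with normal probe brightness, or confirmed in later tests; inconclusive = above 50% with abnormal brightness, or retests that disagree; inactive = below 50% or failed in later tests; about a fifth of its hits are not listed in these tables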;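 note: calls also rest on retests at 20 µM and on dose response follow-up; controls were probe without protein and protein plus probe with vehicle; some compounds called inactive have numbers as strong as hits; many hits fall short of the cut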
Target sequence (P11940 whole entry, looked up): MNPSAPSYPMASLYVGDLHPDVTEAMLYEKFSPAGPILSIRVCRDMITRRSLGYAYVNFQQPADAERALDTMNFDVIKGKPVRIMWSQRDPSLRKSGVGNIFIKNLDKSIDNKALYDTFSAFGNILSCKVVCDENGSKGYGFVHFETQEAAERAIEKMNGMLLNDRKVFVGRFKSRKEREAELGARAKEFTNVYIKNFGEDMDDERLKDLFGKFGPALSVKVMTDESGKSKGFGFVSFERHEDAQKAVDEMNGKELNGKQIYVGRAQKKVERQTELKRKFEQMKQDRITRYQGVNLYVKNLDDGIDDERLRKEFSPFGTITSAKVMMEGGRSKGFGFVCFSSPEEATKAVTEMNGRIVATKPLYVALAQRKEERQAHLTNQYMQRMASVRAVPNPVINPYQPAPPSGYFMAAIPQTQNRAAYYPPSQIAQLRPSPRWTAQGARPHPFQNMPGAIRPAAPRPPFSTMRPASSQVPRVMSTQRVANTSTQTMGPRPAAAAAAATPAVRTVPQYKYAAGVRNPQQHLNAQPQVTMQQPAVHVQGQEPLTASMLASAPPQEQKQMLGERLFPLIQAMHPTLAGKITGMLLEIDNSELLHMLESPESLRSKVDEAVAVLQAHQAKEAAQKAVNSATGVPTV
eIF4H FP inh retest = second read-out of eIF4H FP inh, no call of its own (marks repeat the call); inhibition, %; compound at 20 µM; confirmation average;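 mean of two retest wells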
PABP polyA inh retest = second read-out of PABP polyA inh, no call of its own (marks repeat the call); inhibition, %; compound at 20 µM; confirmation repeats;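 mean of two retest wells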
MT1-MMP act inh RFP = recorded beside MT1-MMP act inh, whose call it bears; RFP signal change, %; measured here: RFP expression control read;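 0 = vehicle wells; hits needed this value within 50% of zero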
Starred values were filed as active, the others as inactive; i = inactive; u = inconclusive; x = not tested or not shown. These rows are one share of the data; rates above refer to the full screens.

SMILES | eIF4H FP inh | MT1-MMP act inh | MT1-MMP act inh RFP | CSC inhib | HIV Env fusion | Yeast UUG start | Rce1 inh | PABP polyA inh | others
Cc1ccc(Cc2cnc(N3C(=N)SC(c4ccccc4)C3=O)s2)cc1 (stereo not drawn) | 3 | 12 | 4 | 30 | -2 | -13 | i | 0
CCOC(=O)CSc1nc(C)c(C(C)=O)cc1C#N | -3 | 2 | 4 | -7 | -95 | -9 | i | -6
C[C@@H](C(=O)NC1CCN(Cc2ccccc2)CC1)N1C(=O)N2CCc3c([nH]c4ccccc34)[C@@]2(C)C1=O | 14 | 1 | -1 | -3 | x | -7 | i | 8
O=C1c2ccccc2N2C(=O)c3ccccc3C2N1O (stereo not drawn) | 5 | 5 | 12 | -2 | x | -7 | i | 6
CCCSC(=S)c1c(C)[nH]n(-c2ccccc2)c1=O | 9 | -5 | -26 | 65 | 1 | x | i | 6
CC(NC(=O)CSc1nc2c(cc1C#N)CN(C)CC2)c1ccccc1 (stereo not drawn) | u | 3 | -2 | 10 | -24 | x | i | u
Nc1ccc(Nc2nc(-c3cc4ccccc4oc3=O)cs2)cc1 | 7 | -2 | -20 | 58 | -73 | -5 | x | 4
COc1cc2[nH]c(C(=O)N(C)Cc3ccccc3)cc2c(OC)c1OC | -2 | 3 | -2 | -11 | 7 | x | i | 10
Nc1ccc(S(=O)(=O)Nc2nccc(/C=C/c3ccc([N+](=O)[O-])cc3)n2)cc1 | -6 | -2 | -4 | x | -1 | -13 | i | 5
O=C(CN1C(=O)CCOc2ccccc21)Nc1ccc(Cl)c(S(=O)(=O)N2CCOCC2)c1 | x | 5 | -2 | x | -2 | -9 | x | x
COc1ccc(CNC(=O)CCCn2ccc3cc(S(=O)(=O)N4CCCC4)ccc32)cc1 | -12 | 9 | -11 | -6 | -26 | -1 | i | 63 | eIF4H FP inh retest=-12;PABP polyA inh retest=5
CC(=O)Nc1cc(C)c2nc(NC(C)=O)sc2c1 | -16 | 1 | 3 | x | -4 | -9 | i | 15
O=C(NN=C1CCC(=NNC(=O)c2ccccn2)CC1)c1ccccn1 | 10 | 17 | 8 | x | -5 | x | x | 5
O=C(Nc1ccc(Oc2ccccc2)nc1)[C@H]1O[C@@H](n2ccc(=O)[nH]c2=O)[C@H](O)[C@@H]1O | x | 3 | 7 | x | -19 | -4 | x | x
Cc1ccc(S(=O)(=O)N2CCC(=O)N(C(COCc3ccc(C(F)(F)F)cc3)C(C)C)CC2)cc1 (stereo not drawn) | 2 | 1 | -6 | 14 | x | -4 | i | 3
CC(=O)N/C(=N\c1nc(C)cc(C)n1)Nc1ccccc1Cl | -3 | 2 | -1 | x | 7 | -8 | i | -4
CCN1CCN(S(=O)(=O)c2c(C)cc(C)cc2C)CC1 | -9 | 0 | -2 | -2 | -10 | -12 | i | 5
NC(=O)c1nsc(C(=O)N(Cc2cccnc2)C(C(=O)NCc2ccccc2)c2ccc(O)cc2)c1N (stereo not drawn) | 1 | -1 | 0 | -13 | 2 | -9 | x | 4
N/C(=N\OC(=O)Cc1ccccc1)c1ccncc1 | -1 | -4 | -4 | -4 | -58 | x | i | 0
COc1ccc(-n2c3c(cc(C#N)c2=O)C(=O)CCC3)cc1 | -4 | -3 | 1 | 1 | -5 | -20 | i | 2
Cc1cc(SCc2ccccc2)nc(=O)[nH]1 | 6 | -2 | 2 | -21 | -85 | 0 | i | 2
COc1ccc(CNS(=O)(=O)CCNC(=O)c2ccccc2)cc1 | x | 5 | 5 | -2 | -7 | x | i | x
COC(=O)C1=C(C)N(CCCC(=O)O)C(=O)NC1c1ccc(Br)cc1 (stereo not drawn) | 5 | 5 | 4 | 2 | -346 | -9 | i | 16
O=C(C[C@@H]1C/C=C/CC[C@H](Cc2ccc(F)cc2)C(=O)OC[C@@H](Cc2ccccc2)NC1=O)N[C@H](CO)Cc1ccccc1 | x | -7 | -6 | 105* | 35 | 7 | x | x
Cc1ccc(NS(=O)(=O)c2ccc3[nH]c(=O)sc3c2)cc1 | 1 | 4 | 0 | -5 | -4 | -8 | i | -10
Cc1cccc(CC2SC(N)=NC2=O)c1 (stereo not drawn) | -3 | 1 | 4 | -8 | 11 | x | i | -9
C=CCn1c(SCC(=O)Nc2nnc(CC)s2)nnc1-c1ccncc1 | -2 | 5 | 7 | -2 | 0 | -21 | i | -3
COc1cccc(NC(=O)CN(C)C(=O)CN2C(=O)NC3(CCCC3)C2=O)c1 | x | -4 | 1 | -6 | -3 | -18 | i | x
Cc1nn(C)cc1CN(C)C(=O)c1cc(COc2ccc(F)cc2F)on1 | -10 | 3 | -1 | -11 | -1 | 8 | i | -9
Cc1ccc(C)c(N2CCN(S(=O)(=O)CC34CCC(CC3=O)C4(C)C)CC2)c1 (stereo not drawn) | 1 | -6 | -12 | 6 | -9 | 3 | x | 4
COc1ccc([C@H]2CC(=O)C=C(c3ccc(C)cc3)C2)cc1OC | x | 1 | -13 | 2 | 25 | -6 | x | x
CC1CN(C(=O)c2ccc(COc3ccccc3Cl)o2)CC(C)O1 (stereo not drawn) | 5 | 0 | -1 | x | 6 | 7 | i | -4
CN1CCN(c2ccc(CNC[C@H]3O[C@@H](n4cnc5c(=O)[nH]c(N)nc54)[C@H](O)[C@@H]3O)c(S(C)(=O)=O)c2)CC1 | x | 3 | 4 | x | 3 | -8 | x | x
Cc1ccccc1NS(=O)(=O)c1ccc(C(=O)NN2CCCCC2)cc1 | 6 | 3 | -1 | 3 | 16 | -13 | x | 1
CCOC(=O)c1snc(C(=O)NC2CCCCC2)c1N | -10 | 1 | -2 | 3 | x | 1 | i | -1
Cc1ccc(C(=O)N2CCN(C(=O)CN3CCOCC3)C2)cc1 | -1 | 0 | 5 | -11 | x | -6 | i | 3
COc1ccc(CCN(C)C(=O)Cn2c(=O)oc3ccccc32)cc1OC | 3 | 0 | 1 | 2 | -4 | -4 | i | 8
O=C(Cc1ccccc1)Nn1c(-c2ccccc2)nc2ccccc2c1=O | -2 | 6 | 5 | 5 | 12 | x | i | -2
COc1ccc(/C=C/C=C2\NC(=S)NC2=O)cc1 | -2 | -5 | -7 | 12 | u | -21 | i | 0
Cc1ccsc1/C=N/NC(=O)C1CC(=O)N(c2ccccc2)C1 (stereo not drawn) | 9 | -4 | 0 | -11 | x | x | i | 10
O=C1Nc2ccccc2C(=O)N2CCCCC12 (stereo not drawn) | -12 | -1 | -3 | -8 | 11 | 3 | i | -1
Cc1c(Cl)ccc2c1NC(=O)[C@]21N[C@@H](CCC(N)=O)[C@H]2C(=O)N(c3ccc(F)cc3)C(=O)[C@H]21 | -5 | -9 | 5 | -17 | -290 | -3 | i | -4
CSc1ccccc1NC(=O)CN(C)C(=O)c1cccc(S(=O)(=O)N(C)C)c1 | -1 | -6 | -1 | -4 | -4 | -5 | i | -4
CCOC(=O)/C(C#N)=C\c1cn(C)c2ccccc12 | 4 | -7 | -3 | x | -8 | x | i | -5
COc1ccc(-c2ccc(NCCC3=CCCCC3)nn2)cc1OC | 6 | -3 | 3 | 9 | x | -6 | i | 4
COc1ccc(/C=N/N=C2/CC(C)(C)Cc3n[nH]c(=O)cc32)cc1 | 64 | -12 | 1 | -3 | 12 | 5 | i | -12 | eIF4H FP inh retest=0;PABP polyA inh retest=18
CC(=O)Nc1cccc(/C(C)=N/NS(=O)(=O)c2ccc(C)cc2)c1 | -10 | -2 | 1 | -8 | 26 | x | i | -11
CCCN(CCC)c1cc(Cl)nc(N)n1 | -14 | 1 | 2 | x | -27 | x | i | -12
CNc1nc(Sc2ccccc2)cc(C(F)(F)F)n1 | -9 | -3 | 2 | 10 | -453 | 0 | i | -1
CC(=O)c1sc(NC(=O)c2cc(-c3ccccc3)nn2-c2ccccc2)nc1C | 2 | 3 | -7 | 13 | 7 | -13 | i | 3
Remaining list, next part.
SMILES | eIF4H FP inh | MT1-MMP act inh | MT1-MMP act inh RFP | CSC inhib | HIV Env fusion | Yeast UUG start | Rce1 inh | PABP polyA inh | others
CCOc1ccc2nc(SCC(=O)NC(=O)C(C)C)sc2c1 | 3 | -4 | -1 | x | 0 | -15 | i | -5
CCN(Cc1ccncc1)C(=S)Nc1c(C)cccc1C | -4 | 1 | 5 | x | 1 | -14 | i | -8
COc1ccc(-c2c(C#Cc3ccsc3)c3cc(-c4ccc5cc[nH]c5c4)ccc3n2C)cc1 | x | -1 | 4 | 13 | -25 | -21 | x | x
CCOc1ccccc1C(=O)N(Cc1cccs1)C1CCS(=O)(=O)C1 (stereo not drawn) | -10 | 0 | 0 | -2 | x | -8 | i | -2
COc1ccc(S(=O)(=O)Nc2nnc(CC(C)(C)C)s2)cc1 | -14 | 3 | 6 | -1 | 2 | x | i | -3
CN1C=CC=C/C1=C1/N=C(c2ccccc2)OC1=O | 2 | 0 | -2 | -2 | -20 | x | i | 8
COC1=CC(=O)CC(C)C12Oc1cc(OC)cc(OC)c1C2=O (stereo not drawn) | 2 | -1 | 2 | -1 | x | -25 | i | 14
O=C(NCc1ccc(Cl)cc1)C1CCCN1C(=O)Nc1ccc(F)cc1 (stereo not drawn) | 1 | -1 | 2 | -11 | 4 | -10 | i | -12
Cc1c(C)c2ccc(OCC(=O)N[C@@H](Cc3ccccc3)C(=O)O)cc2oc1=O | -7 | -2 | 0 | -2 | x | -4 | i | 12
O=C(CN1CCOCC1)Nc1ccc(OC(F)(F)F)cc1 | 11 | -1 | -2 | -5 | -12 | -12 | i | 8
CCCOc1ccccc1Cn1c(=O)oc2ccccc21 | -3 | -6 | -6 | 5 | -41 | -17 | i | 0
O=c1c(-c2ccc(O)cc2)coc2c(C3O[C@H](CO)[C@@H](O)[C@H](O)[C@H]3O)c(O)ccc12 (stereo partly drawn) | 4 | -6 | 1 | -5 | 1 | -5 | i | 4
NS(=O)(=O)c1ccc(N/C=C/C(=O)c2ccc(Br)cc2)cc1 | 8 | -4 | 5 | 7 | -36 | -12 | i | 6
CCc1ccc(NC(=O)CSC2=C(C#N)C(c3ccco3)C3=C(CCCC3=O)N2)cc1 (stereo not drawn) | -4 | -1 | -9 | 37 | x | -16 | i | -5
Cn1cc(C(=O)CCl)c2ccccc21 | 2 | -1 | 2 | x | -40 | -21 | i | 6
N#CC1=C2SCC(O)(c3ccccc3)N2C(=O)CC1c1ccccc1F (stereo not drawn) | 17 | 17 | 11 | 43 | 24 | 4 | i | 25
COc1ccc(CN(C)CC(O)COc2ccc(C(=O)c3ccccc3)cc2)c(OC)c1OC (stereo not drawn) | 6 | 0 | -5 | 10 | 9 | -10 | i | 46
Fc1ccc(CNCc2ccc3c(c2)OCO3)cc1 | -16 | -1 | -1 | -11 | 13 | -21 | i | 0
Cc1ccc(CNC(=O)COC(=O)Cc2ccc(-c3ccccc3)cc2)cc1 | 0 | -1 | 1 | 22 | -32 | -14 | i | -4
Cc1cc(C)nc(Nc2ccc(C)c([N+](=O)[O-])c2)n1 | -4 | -18 | -13 | -11 | -34 | -4 | i | -8
